Myc binder – binders of human c-Myc | calls only | actives 1.5% (n = 17,000) | P01106 | small molecule microarray, His-c-Myc binding, anti-His fluorescence;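 active means spot fluorescence over background with P-value below 7% in all four replicate spots, showing protein binding; compounds were printed on slides so no solution concentration is given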;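 further: score is binary with 100 for all four spots passing and 0 otherwise; about 2 pmol printed per array spot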
Target sequence (P01106 whole entry, looked up): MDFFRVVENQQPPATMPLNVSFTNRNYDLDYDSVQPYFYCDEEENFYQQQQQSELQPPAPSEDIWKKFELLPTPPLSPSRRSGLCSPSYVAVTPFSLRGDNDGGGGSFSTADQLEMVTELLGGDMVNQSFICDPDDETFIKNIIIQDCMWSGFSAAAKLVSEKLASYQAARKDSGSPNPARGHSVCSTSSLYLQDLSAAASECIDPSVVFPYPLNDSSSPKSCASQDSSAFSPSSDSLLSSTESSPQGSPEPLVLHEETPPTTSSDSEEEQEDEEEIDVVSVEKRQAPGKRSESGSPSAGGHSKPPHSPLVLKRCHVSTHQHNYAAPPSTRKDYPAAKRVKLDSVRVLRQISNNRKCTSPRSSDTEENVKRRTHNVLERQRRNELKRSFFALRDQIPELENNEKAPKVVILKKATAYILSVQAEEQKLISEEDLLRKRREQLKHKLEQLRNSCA
ID4 SMM – ID4 (human) binding | P47928 | small molecule microarray, Flag-ID4 binding, fluorescence F/B | calls only | actives 1.2% (n = 31,000) | AID 624137;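 active means spot signal over background at p below 0.07 in all four prints; compounds were printed on slides so no solution concentration is given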;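 further: a binder raises fluorescence above local background on the spot; about 2 pmol printed per array spot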
Target sequence (P47928 whole entry, looked up): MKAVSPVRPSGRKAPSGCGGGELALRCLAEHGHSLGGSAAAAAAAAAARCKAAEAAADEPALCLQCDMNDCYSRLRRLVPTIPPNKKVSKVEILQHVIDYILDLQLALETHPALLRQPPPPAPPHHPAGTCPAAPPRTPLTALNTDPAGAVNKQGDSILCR
STAT3 binder – binders of human STAT3; P40763; Small molecule microarray, His-STAT3 binding, anti-His fluorescence; calls only; actives 0.2% (n = 17,000);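 active means compounds whose four printed spots each show fluorescence over background unusually high for their array block, chance value under 7%; compounds were printed on slides so no solution concentration is given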;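 further: about 2 pmol printed per array spot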
p53 mut binder – binders of human mutant p53. small molecule microarray binding, anti-GST fluorescence. calls only. actives 0.4% (n = 17,000);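 active means compounds whose four printed spots each glow above background more than chance allows, each with a p-value under 7%; compounds were printed on slides so no solution concentration is given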;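 further: about 2 pmol printed per array spot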
Calls only; i = inactive; . = no result given; + = active, no number.

SMILES	Myc binder	ID4 SMM	STAT3 binder	p53 mut binder
C[C@@H]1CN([C@@H](C)CO)C(=O)c2cc(NS(=O)(=O)c3ccc(F)cc3)ccc2O[C@@H](C)CCCCO[C@H]1CN(C)Cc1ccc2c(c1)OCO2	i	.	i	i
Cc1noc(C)c1S(=O)(=O)Nc1cccc2c1O[C@@H](CN(C)C(=O)Nc1ccccc1)[C@@H](C)CN([C@H](C)CO)C2=O	i	i	i	i
CCOc1ccc(NC(=O)c2c(NC(=O)CN(C)C)sc3c2CCC3)cc1	i	i	i	i
C[C@@H]1CCCCO[C@@H](CN(C)C)[C@@H](C)CN([C@H](C)CO)C(=O)c2cc(NS(=O)(=O)c3ccc(F)cc3)ccc2O1	i	.	i	i
CC1CC[C@]2(C(=O)OC3OC(COC4OC(CO)C(O)C(O)C4O)C(O)C(O)C3O)CC[C@]3(C(=O)O)C(=CCC4[C@@]5(C)CC[C@H](OC6OC(C)C(O)C(O)C6O)C(C)(C)C5CC[C@]43C)C2C1C (stereo partly drawn)	i	i	i	i
Cc1noc(C)c1S(=O)(=O)Nc1ccc2c(c1)C(=O)N([C@H](C)CO)C[C@H](C)[C@@H](CN(C)C(=O)NC(C)C)O2	i	.	i	i
COc1ccc(S(=O)(=O)Nc2cccc3c2O[C@@H](CN(C)Cc2ccc4c(c2)OCO4)[C@H](C)CN([C@@H](C)CO)C3=O)cc1	i	i	i	i
Cc1ccc(S(=O)(=O)c2nc(S(C)(=O)=O)sc2NCC2CCCO2)cc1 (stereo not drawn)	i	i	i	i
C[C@@H]1CN([C@H](C)CO)C(=O)c2cccc(NC(=O)Nc3ccc(F)cc3)c2O[C@H]1CN(C)S(=O)(=O)c1ccc(Cl)cc1	i	i	i	i
C[C@@H]1CN([C@H](C)CO)C(=O)Cc2cc(NS(=O)(=O)c3ccc(Cl)cc3)ccc2O[C@H]1CN(C)Cc1ccc(C(=O)O)cc1	i	.	i	i
COC(=O)c1cn(CC(=O)N2CCOCC2)nn1	i	i	i	i
C[C@H]1CN([C@@H](C)CO)C(=O)c2cc(NC(=O)Nc3ccccc3)ccc2O[C@@H]1CN(C)S(C)(=O)=O	i	.	i	i
O=C(COc1nc(-c2cccs2)cc(C(F)(F)F)n1)Nc1ccc(Cl)cc1Cl	i	i	i	i
COc1cc(-c2nc3sc4c(c3c(=O)[nH]2)CCCC4)cc(Br)c1OCC(=O)O	+	+	i	i
COC(=O)CNC(=O)c1cc2cc(Cl)ccc2oc1=O	i	i	i	i
O=C1NCC(=O)N2[C@@H]1C[C@@H](C(=O)NCc1ccc(F)cc1)[C@H]2c1ccc(O)cc1	i	i	i	i
C[C@H](CO)N1C[C@H](C)[C@H](CN(C)C(=O)Nc2ccc(C(F)(F)F)cc2)Oc2c(NS(C)(=O)=O)cccc2C1=O	i	i	i	i
C[C@@H]1CN([C@@H](C)CO)C(=O)c2cc(NC(=O)Nc3ccccc3)ccc2O[C@@H](C)CCCCO[C@@H]1CN(C)C(=O)CCCN(C)C	i	i	i	i
C[C@H]1CN([C@@H](C)CO)C(=O)c2cc(NC(=O)Nc3ccccc3)ccc2O[C@H]1CN(C)C(=O)Nc1ccc(C(F)(F)F)cc1	i	i	i	i
Cn1c(Cc2cccc3ccccc23)nnc1SCC(=O)c1ccc(Cl)cc1	i	i	i	i
C[C@@H]1CN([C@H](C)CO)C(=O)c2cc(N(C)C)ccc2O[C@@H](C)CCCCO[C@@H]1CN(C)S(=O)(=O)c1ccccc1	i	i	i	i
C[C@@H]1CCCCO[C@H](CN(C)S(=O)(=O)c2ccc(F)cc2)[C@@H](C)CN([C@@H](C)CO)C(=O)c2cc(NC(=O)c3ccncc3)ccc2O1	i	i	i	i
C[C@H]1CCCCO[C@@H](CN(C)S(=O)(=O)c2ccccc2)[C@@H](C)CN([C@@H](C)CO)C(=O)c2cc(NC(=O)Nc3ccccc3)ccc2O1	i	i	i	i
C[C@H](CO)N1C[C@H](C)[C@@H](CN(C)S(=O)(=O)c2cccs2)Oc2ccc(NC(=O)Cc3ccccc3)cc2CC1=O	i	i	i	i
C[C@H]1CN([C@@H](C)CO)C(=O)c2cc(NC(=O)C3CC3)ccc2O[C@@H]1CN(C)S(=O)(=O)c1cccs1	i	i	i	i
(next part)
SMILES	Myc binder	ID4 SMM	STAT3 binder	p53 mut binder
COc1ccc(CN(C)C[C@H]2Oc3ccc(NC(=O)Nc4ccc(OC)cc4)cc3C(=O)N([C@@H](C)CO)C[C@@H]2C)cc1	i	i	i	i
O=C(CC1C(=O)NCCN1C(=O)Nc1ccc(Cl)cc1)Nc1ccc(F)cc1 (stereo not drawn)	i	i	i	i
C[C@@H]1CCCCO[C@H](CN(C)S(=O)(=O)c2cn(C)cn2)[C@H](C)CN([C@H](C)CO)C(=O)c2cc(NS(=O)(=O)c3ccccc3)ccc2O1	i	.	i	i
COc1ccc(C#Cc2ccc3c(c2)[C@]2(C(=O)N3)[C@H](c3ccccc3OCCO)N3[C@H](c4ccccc4)[C@H](c4ccccc4)OC(=O)[C@H]3[C@@H]2C(=O)N2CCCCCCC2)cc1	+	i	i	+
C[C@@H]1CN([C@H](C)CO)C(=O)Cc2cc(NS(=O)(=O)c3ccccc3)ccc2O[C@H]1CN(C)C(=O)NC1CCCCC1	i	i	i	i
C[C@@H]1CCCCO[C@@H](CN(C)Cc2ccc(C(=O)O)cc2)[C@H](C)CN([C@H](C)CO)C(=O)c2cc(NC(=O)Nc3ccc(F)cc3)ccc2O1	i	i	i	i
CC(C)n1cnc2c(NCc3ccccc3O)nc(NCCCO)nc21	i	.	i	i
COc1ccc2[nH]c(-c3ccccc3)c(CCNC(C)=O)c2c1	i	i	i	i
Cc1noc(C)c1NC(=O)N(C)C[C@@H]1Oc2ccc(NC(=O)CCC(F)(F)F)cc2C(=O)N([C@H](C)CO)C[C@@H]1C	i	.	i	i
C[C@H](CO)N1C[C@H](C)[C@H](CN(C)S(=O)(=O)c2cccs2)Oc2ccc(NC(=O)Nc3ccc4c(c3)OCO4)cc2C1=O	i	i	i	i
C[C@@H]1CN([C@@H](C)CO)C(=O)Cc2cc(NC(=O)Cn3cnnn3)ccc2O[C@H]1CN(C)C(=O)Nc1cccc2ccccc12	i	i	i	i
S=C(NCC1CCCO1)Nc1cnn(Cc2ccc(Cl)cc2)c1 (stereo not drawn)	+	i	i	i
C[C@@H]1CN([C@@H](C)CO)C(=O)c2cccc(NS(C)(=O)=O)c2O[C@@H]1CN(C)Cc1ccc(C(=O)O)cc1	i	.	i	i
COc1ccc(S(=O)(=O)N[C@@H]2CCCN(Cc3cccc(OCCO)c3)C2)cc1	i	i	i	i
Cc1cc(C(F)(F)F)nc(SCC(=O)Nc2ccccc2)n1	i	i	i	i
Cc1noc(C)c1S(=O)(=O)N(C)C[C@H]1Oc2ccc(NC(=O)Cc3cn(C)c4ccccc34)cc2CC(=O)N([C@H](C)CO)C[C@H]1C	i	i	i	i
CNC[C@H]1OCCCC[C@@H](C)Oc2ccc(NC(=O)c3ccncc3)cc2C(=O)N([C@@H](C)CO)C[C@@H]1C	i	i	i	i
O=C(NCc1ccco1)Nc1cccc2ccccc12	i	i	i	i
C[C@H]1CN([C@@H](C)CO)C(=O)CCCn2nncc2CO[C@@H]1CN(C)S(=O)(=O)c1ccc2ccccc2c1	i	i	i	i
C[C@H]1CN([C@@H](C)CO)C(=O)c2cc(NC(=O)Nc3ccc4c(c3)OCO4)ccc2O[C@@H]1CN(C)S(=O)(=O)c1cccs1	i	i	i	i
C[C@@H]1CN([C@H](C)CO)C(=O)CCCn2cc(nn2)CO[C@H]1CN(C)C(=O)CCCN(C)C	i	i	i	i
Cc1ccc(OC(=O)N(C)C[C@@H]2OCc3cn(nn3)CCCC(=O)N([C@@H](C)CO)C[C@@H]2C)cc1	i	i	i	i
C[C@@H]1CCCCO[C@@H](CN(C)S(=O)(=O)c2ccccc2)[C@@H](C)CN([C@@H](C)CO)C(=O)c2cc(NC(=O)Cc3ccccc3)ccc2O1	i	i	i	i
C[C@@H]1CN([C@H](C)CO)C(=O)c2cc(NS(=O)(=O)c3cccs3)ccc2O[C@H]1CN(C)C(=O)NC1CCCCC1	i	i	i	i
CC(C)NC(=O)Nc1ccc2c(c1)C(=O)N([C@@H](C)CO)C[C@H](C)[C@@H](CN(C)C)O2	i	.	i	i

Two of the compounds above, as labelled records.
O=C(NCc1ccco1)Nc1cccc2ccccc12
  Myc binder = i
  ID4 SMM = i
  STAT3 binder = i
  p53 mut binder = i
C[C@H]1CN([C@@H](C)CO)C(=O)CCCn2nncc2CO[C@@H]1CN(C)S(=O)(=O)c1ccc2ccccc2c1
  Myc binder = i
  ID4 SMM = i
  STAT3 binder = i
  p53 mut binder = i

Single records (already shown). Values in the order: Myc binder	ID4 SMM	STAT3 binder	p53 mut binder
CNC[C@H]1OCCCC[C@@H](C)Oc2ccc(NC(=O)c3ccncc3)cc2C(=O)N([C@@H](C)CO)C[C@@H]1C as listed: i	i	i	i
C[C@@H]1CN([C@H](C)CO)C(=O)c2cc(NS(=O)(=O)c3cccs3)ccc2O[C@H]1CN(C)C(=O)NC1CCCCC1 as listed: i	i	i	i
C[C@@H]1CN([C@@H](C)CO)C(=O)c2cccc(NS(C)(=O)=O)c2O[C@@H]1CN(C)Cc1ccc(C(=O)O)cc1 as listed: i	.	i	i
C[C@H]1CN([C@@H](C)CO)C(=O)c2cc(NC(=O)Nc3ccc4c(c3)OCO4)ccc2O[C@@H]1CN(C)S(=O)(=O)c1cccs1 as listed: i	i	i	i
O=C(NCc1ccco1)Nc1cccc2ccccc12 as listed: i	i	i	i

Continued.
SMILES	Myc binder	ID4 SMM	STAT3 binder	p53 mut binder
C/C=C1\C(O[C@@H]2O[C@H](CO[C@@H]3O[C@H](CO)[C@@H](O)[C@H](O)[C@H]3O)[C@@H](O)[C@H](O)[C@H]2O)OC=C(C(=O)OC)C1CC(=O)OCCc1ccc(O)cc1 (stereo partly drawn)	i	i	i	i
Cc1noc(C)c1NC(=O)N(C)C[C@H]1OCCCC[C@@H](C)Oc2ccc(NC(=O)c3ccncc3)cc2C(=O)N([C@@H](C)CO)C[C@@H]1C	i	i	i	i
C#Cc1ccc([C@H]2C=C(C(=O)O)O[C@@H](OCC)[C@@H]2CCCO)cc1	i	.	i	i
COc1ccc(C#Cc2ccc3c(c2)[C@]2(C(=O)N3)[C@H](c3ccccc3OCCO)N3[C@H](c4ccccc4)[C@H](c4ccccc4)OC(=O)[C@H]3[C@@H]2C(=O)O)cc1	i	i	i	i
Cc1cccc(C)c1NC(=O)C(C)N (stereo not drawn)	i	i	i	i
CCO[C@@H]1OC(C(=O)O)=C[C@H](c2cn(C(C)=O)c3ccccc23)[C@H]1CCCO	i	i	i	i
COc1ccc([C@H]2Oc3cc(O)cc(O)c3C(=O)[C@@H]2O)cc1	i	.	i	i
Cc1c(NC(=O)COc2ccc(Br)cc2)cccc1-c1nc2ncccc2o1	i	i	i	i
COc1ccccc1-n1c(SCC(N)=O)nc2ccc(I)cc2c1=O	i	i	i	i
C[C@H](CO)N1C[C@H](C)[C@H](CN(C)C)OCCCC[C@H](C)Oc2ccc(N(C)C)cc2C1=O	i	i	i	i
C[C@@H]1CN([C@@H](C)CO)C(=O)Cc2cc(NC(=O)CCN3CCOCC3)ccc2O[C@H]1CN(C)S(C)(=O)=O	i	.	i	i
C[C@@H]1CN([C@H](C)CO)C(=O)c2cc(NC(=O)c3ccncc3)ccc2O[C@H]1CN(C)Cc1ccncc1	i	.	i	i
CC(C)NC(=O)Nc1ccc2c(c1)C(=O)N([C@H](C)CO)C[C@H](C)[C@H](CN(C)S(=O)(=O)c1ccccc1)OCCCC[C@H](C)O2	i	i	i	i
CC(=C\C(=O)O)/C=C(\C)CC(C)CCCCC(O)C(CO)C(=O)O (stereo not drawn)	i	i	i	i
Cc1c(CCC(=O)O)c(=O)oc2c(C)c(OCc3ccccc3Cl)ccc12	i	i	i	i
C[C@H]1CN([C@@H](C)CO)C(=O)c2cc(NS(=O)(=O)c3ccc(Cl)cc3)ccc2O[C@H]1CN(C)C(=O)Nc1cccc2ccccc12	i	.	i	i
COc1cc(/C=C/c2ccc(OC)cc2OC)cc(OC)c1	i	i	i	i
C[C@@H]1CN([C@H](C)CO)C(=O)c2cccc(NC(=O)Nc3ccc(C(F)(F)F)cc3)c2O[C@@H]1CN(C)S(C)(=O)=O	i	.	i	i
O=C(CSc1nc(-c2ccccc2)cc(C(F)(F)F)n1)N1CCCc2ccccc21	i	i	i	i
Oc1ccc(CCCCC(CCc2ccc(O)cc2)O[C@@H]2OC[C@@H](O)[C@H](O)[C@H]2O)cc1 (stereo partly drawn)	i	.	i	i
OC1c2ccccc2-c2c3c(cc4c2C1NCC4)OCO3 (stereo not drawn)	+	i	i	i
O=C(Nc1ccc(Cl)c(C(F)(F)F)c1)C(Cc1ccccc1)N1C(=O)C2CCCCC2C1=O (stereo not drawn)	i	i	i	i
CC(=O)Nc1ccc(OCC(O)Cn2nc(C)nc2C)cc1 (stereo not drawn)	i	i	i	i
CCCC(=O)Oc1ccc2[nH]c(C(=O)c3cc4ccccc4[nH]3)cc2c1	i	.	i	i
CC(C)Sc1nc2sc3c(c2c2nnc(SCC(=O)c4ccccc4)n12)CCCC3	i	i	i	i
C[C@@H]1CN([C@@H](C)CO)C(=O)Cc2cc(NS(=O)(=O)c3cn(C)cn3)ccc2O[C@H]1CN(C)S(=O)(=O)c1cn(C)cn1	i	i	i	i
C[C@@H]1CCCCO[C@@H](CN(C)S(=O)(=O)c2ccccc2)[C@@H](C)CN([C@@H](C)CO)C(=O)c2cc(NS(=O)(=O)c3ccccc3)ccc2O1	i	i	i	i

Screening data from PubChem.

These rows are one share of the data; count on the stated rates, not on these rows.
